eIF4H FP inh – human eIF4H binding inhibitors, primary screen, translation initiation inhibitor project, biochemical, uHTS, fluorescence polarization | eIF4H fluorescence polarization binding assay | inhibition, % at 35 µM | 290,000 compounds, 0.94% hits | AID 2012, 2009;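 active means 50% or more with normal probe brightness, or confirmed in later tests; inconclusive means above 50% with abnormal brightness, or retests that disagree; inactive means below 50% or failed in later tests; about a fifth of its hits are not listed in these tables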;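 further: calls also rest on retests at 20 µM and on dose response follow-up; 0% = protein and probe with vehicle and 100% = probe without protein; strong numbers were not always called active; many hits fall short of the cut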
MT1-MMP act inh – blockers of MT1-MMP proenzyme processing, primary screen, HT1080 RFP-PRO-GFP cells, GFP/RFP fluorescence. GFP/RFP ratio fluorescence, overnight; percent of plate control window, DMSO zero. GFP/RFP ratio change, % at 20 µM. 360,000 compounds, 0.061% hits;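 active means GFP/RFP ratio change of at least 30% with cell ATP level not reduced by more than half and red fluorescence within 50% of control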; further: strong numbers were not always called active
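Read-out: GFP/RFP fluorescence ratio; Test system: RFP-PRO-GFP reporter HT1080 cells; Compound dosing: single-point 20 µM compound, 1% DMSO; Times: overnight compound exposure at 37 °C.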
Rce1 inh – yeast Rce1p protease inhibitors, primary screen, biochemical, fluorescence, cell-free homogeneous; calls only; 290,000 compounds, 0.27% hits; yeast membranes, quenched prenylated peptide cleavage fluorescence; CAAX prenyl protease 2 (Saccharomyces cerevisiae (strain ATCC 204508 / S288c)), Q03530;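 active means fall in fluorescence gain of 50% or more versus controls, with final raw signal at or below 3038400; inconclusive means same 50% fall but final raw signal above 3038400; inactive means fall in fluorescence gain under 50%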;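 further: plate controls were neutral control wells for no effect and wells lacking membranes for full effect; tested at 10 µM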
CSC inhib – cancer stem cell viability inhibitors, primary screen, luminescence; cancer stem cell-like cells viability; AID 2717, 2010; inhibition, % at 7.5 µM; 300,000 compounds, 1.1% hits;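 active means mean at 75% or more and at least half the replicates too; inconclusive means mean and replicates disagree; tested in HMLE shEcad cells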;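 further: 0% = median of negative and 100% = median of positive control wells; the first replicate is given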
PABP FP inh – PABP poly(A) RNA binding inhibitors, primary screen, biochemical, fluorescence polarization, uHTS. inhibition, % at 35 µM. AID 2014, 2009. 290,000 compounds, 1% hits;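 active means 50% or more with normal probe brightness, or confirmed in later tests; inconclusive means above 50% with abnormal brightness, or retests that disagree; inactive means below 50% or failed in later tests; about a fifth of its hits are not listed in these tables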;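 further: calls also rest on retests at 20 µM and on dose response follow-up; controls were probe without protein and protein plus probe with vehicle; some compounds called inactive have numbers as strong as hits; many hits fall short of the cut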
Target sequence (P11940 whole entry, looked up): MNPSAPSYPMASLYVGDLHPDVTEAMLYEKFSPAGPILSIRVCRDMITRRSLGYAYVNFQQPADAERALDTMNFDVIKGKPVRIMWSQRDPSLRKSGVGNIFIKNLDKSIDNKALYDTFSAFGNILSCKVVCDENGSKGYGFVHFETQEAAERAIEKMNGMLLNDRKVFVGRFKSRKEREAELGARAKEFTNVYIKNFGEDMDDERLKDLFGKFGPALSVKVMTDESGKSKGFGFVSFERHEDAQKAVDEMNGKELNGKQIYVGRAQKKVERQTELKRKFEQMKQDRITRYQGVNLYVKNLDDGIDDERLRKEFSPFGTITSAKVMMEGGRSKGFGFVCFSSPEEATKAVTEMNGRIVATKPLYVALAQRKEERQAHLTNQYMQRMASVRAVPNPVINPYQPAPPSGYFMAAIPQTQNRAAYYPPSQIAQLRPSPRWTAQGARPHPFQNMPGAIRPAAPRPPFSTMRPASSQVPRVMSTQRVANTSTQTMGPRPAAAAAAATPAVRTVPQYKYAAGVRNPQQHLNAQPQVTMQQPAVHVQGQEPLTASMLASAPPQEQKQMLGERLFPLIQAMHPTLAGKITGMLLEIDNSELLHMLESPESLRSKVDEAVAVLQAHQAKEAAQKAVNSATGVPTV
Env fusion inh – inhibitors of HIV-1 Env-driven cell-cell fusion, primary screen, HeLa-JRFL effector, CEM21 target cells, luciferase; 360,000 compounds, 1.1% hits; inhibition, % at 12.3 µM; AID 651610, 2012;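 active means mean replicate inhibition score of at least 50 and every replicate individually at or above 50; inconclusive means only one of the two criteria met; inactive means mean below 50 and not all replicates reaching 50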;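 further: 0% = plate neutral controls and 100% = maraviroc near 300 nM; one replicate is shown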
UUG fidelity – modulators of yeast start codon fidelity, primary screen, whole organism, S. cerevisiae, single point, plate reader | S. cerevisiae UUG-firefly luciferase reporter, luminescence/redox ratio | activity score, % at 18.7 µM | 350,000 compounds, 0.13% hits | AID 602363, 2012;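 active means replicate mean at a twofold rise or more, about +100% in these data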;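 further: firefly luciferase made from a UUG start codon reports start codon fidelity; reporter light over untreated wells divided by growth signal over untreated wells; some hits fall short of that in this replicate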
eIF4H FP inh retest – further read-out of eIF4H FP inh, marked with its call; inhibition, %; compound at 20 µM; confirmation average;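 mean of two retest wells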
PABP FP inh retest – second read-out of PABP FP inh, no call of its own (marks repeat the call); inhibition, %; compound at 20 µM; confirmation repeats;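 mean of two retest wells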
MT1-MMP act inh RFP – recorded beside MT1-MMP act inh, whose call it bears; RFP signal change, %; measured here: RFP expression control read;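 0 = vehicle wells; hits needed this value within 50% of zero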
Active calls of the source: *; i = inactive; ? = inconclusive; · = no result given; & = joins results of further samples; [ ] = remark or other dose. This is a subset, so the mix of outcomes need not match the whole.

SMILES | eIF4H FP inh | MT1-MMP act inh | MT1-MMP act inh RFP | Rce1 inh | CSC inhib | PABP FP inh | Env fusion inh | UUG fidelity | others
CCN1CCN(c2nc3c(c(=O)[nH]c(=O)n3C)n2CCCSc2ncccn2)CC1 | 6 | -1 | 4 | i | -3 | 14 | · | -18
O=C(CCCO)c1ccc2c(c1)OCCO2 | 6 | 3 | 1 | i | -6 | 0 | · | -21
COc1ccc(S(=O)(=O)NCCc2nnc3ccc(SCc4cccnc4)nn23)cc1 | 7 | -2 | 4 | i | · | -10 | -31 | ·
CCn1nc(C)c(CNC(=O)c2cc(COc3ccc(C)nc3)on2)c1C | -5 | 1 | -20 | i | -6 | -6 | 2 | -9
COc1ccc(-c2cc(C3CCN(Cc4ccc([N+](=O)[O-])cc4)CC3)[nH]n2)cc1 | 4 | 1 | -3 | i | 37 | -4 | 2 | ·
O=[N+]([O-])c1ccc(Sc2ccc(Cl)c(Cl)c2)nc1 | -11 | -3 | -2 | i | -4 | 4 | -37 | -19
O=C(OCN1C(=O)c2ccccc2C1=O)c1ccc(Cl)nc1 | -22 | 0 | 0 | i | 6 | 7 | -3 | -10
O=C(CCc1nnc(CCCCc2ccccc2)o1)N1CCC(N2CCCC2)CC1 | 0 | 0 | 3 | i | -6 | -10 | 4 | 12
COC(=O)/C=C1\SC(=Nc2ccc(OC)cc2)NC1=O | -3 | 0 | -3 | i | -2 | -2 | -3 | ·
CCCn1c(SCC(=O)N(C)C2CCCCC2)n[nH]c1=O | · | -1 | 6 | · | · | · | -31 | -21
CCOC(=O)CN[C@H]1CCC2C3CC=C4C[C@@H](O)CC[C@]4(C)C3CC[C@@]21C (some centres not stated) | · | 1 | -4 | · | -2 | · | -1 | ·
CSc1nc2cc(Oc3cccc(Cl)c3Cl)c(Cl)cc2[nH]1 | -2 | 5 | -8 | i | 103* | -3 | 6 | -13
OCCN1CCN(c2ncnc3c2ncn3[C@H]2CN(Cc3ccc4c(c3)OCO4)C[C@@H](CO)O2)CC1 | · | 2 | 5 | · | · | · | -10 | -11
COc1nc(C)cc(C)c1S(=O)(=O)c1ccccc1 | -9 | 7 | 5 | i | 6 | -3 | -3 | -16
CC(C)OCCCNc1ncnc2c1[nH]c1ccccc12 | 6 | 3 | -23 | i | · | -3 | 78* | -15
COc1ccc(N2CCN(C(=O)CNC(=O)c3ccco3)CC2)cc1 | -6 | 0 | 3 | i | 0 | 7 | -12 | -18
O=C(c1cccc(Oc2ccc([N+](=O)[O-])cc2Cl)c1)N1CCCCC1 | -2 | -1 | 3 | i | 9 | -6 | -12 | ·
COc1ccccc1NS(=O)(=O)c1cccc(C(=O)N/N=C/c2ccc3c(c2)OCCO3)c1 | 1 | 3 | 5 | i | -16 | 18 | -15 | ·
CCn1c2ccccc2c2cc(CN3CCN(S(=O)(=O)Cc4ccccc4)CC3)ccc21 | 12 | -2 | -3 | i | -2 | -10 | 9 | -17
COc1ccc(CC(=O)Nc2ccc3c(C)cc(=O)oc3c2)cc1OC | -14 | 0 | -3 | i | 2 | -4 | -10 | ·
CC(NC(=O)c1ccco1)C(=O)N(C)Cc1ccc(C(F)(F)F)cc1 (configuration not stated) | -5 | 1 | 1 | i | -7 | 6 | -11 | -34
Cc1ccc(-c2cc(-c3ccc(F)cc3)c(C#N)c(N)n2)o1 | ? | -17 | 8 | i | 5 | -7 | -46 | -9
CC(Oc1ccc(/C=N/NC(=O)Cc2cccc3ccccc23)cc1)C(=O)O (configuration not stated) | -5 | 0 | -1 | i | 11 | -6 | -9 | ·
CC(C)=C[C@@H]1C[C@H](C)[C@H]2CC[C@H](C)c3c(O)c(O)c(C)c1c32 | · | -4 | 10 | · | 16 | · | 19 | -14
COC(=O)c1cc(NS(=O)(=O)c2ccc(N3CCOCC3)c(N)c2)cc(C(=O)OC)c1 | -9 | · | · | i | -20 | -2 | -164 | -6
O=C(NCc1ccccc1)C1Cc2c(-c3cccc(F)c3)ccnc2O1 (configuration not stated) | · | 13 | -3 | · | · | · | -91 | 3
O=C(CN1C(=O)S/C(=C\C=C\c2ccccc2)C1=O)N1CCCCC1 | 0 | 0 | -7 | i | 2 | 7 | · | -3
Nc1nc(NCCOCCO)nc(Nc2cccc(F)c2)c1[N+](=O)[O-] | -2 | -3 | -2 | i | -2 | -5 | -3 | -6
O=C(O)CCCCCN1C(=O)C(O)=C(C(=O)/C=C/c2ccccc2)C1c1ccc2c(c1)OCO2 (configuration not stated) | -4 | 0 | 0 | i | -11 | 11 | 9 | ·
CC(NC(=O)COC(=O)c1ccc2c(=O)n3c(nc2c1)CCCCC3)c1ccccc1 (configuration not stated) | · | -1 | 1 | · | -10 | · | · | -13
COc1ccc(CNC(=O)COC(=O)c2ccc3c(c2)OCCO3)cc1 | 3 | -2 | 0 | i | -8 | -6 | · | -1
Oc1ccccc1-c1nc2c3ccccc3c3ccccc3c2[nH]1 | 23 | 4 | 3 | i | -3 | 9 | -2 | -12
N=C1SC(CC(=O)Nc2ccc([N+](=O)[O-])cc2)C(=O)N1c1ccccc1 (configuration not stated) | -7 | -1 | -3 | i | 24 | -1 | 9 | -4
Cc1ccc(C(=O)N/C(=C/c2cccnc2)C(=O)NCc2ccco2)cc1 | -2 | 7 | 5 | i | -18 | -6 | 2 | ·
O=C(c1ccc2c(=O)n(Cc3ccccc3Cl)c(=S)[nH]c2c1)N1CCCC1 | 5 | 2 | 2 | i | -7 | 2 | 18 | ·
CC(C)NC(=O)C1CCN(C2CCN(Cc3nc4ccccc4s3)CC2)CC1 | 4 | 2 | 5 | i | 2 | -3 | 9 | ·
CCCOc1ccccc1-c1nc(SCCC(=O)O)n[nH]1 | -2 | -1 | 0 | i | -2 | -6 | -53 | -4
O=C(OCc1cccc([N+](=O)[O-])c1)c1ccncc1 | 4 | 0 | -1 | i | -10 | -10 | -15 | ·
O=C(Nc1ccccn1)C(NS(=O)(=O)c1cccc2nsnc12)c1ccccc1 (configuration not stated) | -2 | -2 | 1 | i | 4 | -9 | -103 | -28
O=C(COc1ccc(Cl)cc1)Nc1ccc(N2CCN(C(=O)c3ccco3)CC2)cc1 | 7 | · | · | i | 20 | -3 | · | 1

By substructure, those above containing fluorine.
SMILES | eIF4H FP inh | MT1-MMP act inh | MT1-MMP act inh RFP | Rce1 inh | CSC inhib | PABP FP inh | Env fusion inh | UUG fidelity | others
CC(NC(=O)c1ccco1)C(=O)N(C)Cc1ccc(C(F)(F)F)cc1 (configuration not stated) | -5 | 1 | 1 | i | -7 | 6 | -11 | -34
Cc1ccc(-c2cc(-c3ccc(F)cc3)c(C#N)c(N)n2)o1 | ? | -17 | 8 | i | 5 | -7 | -46 | -9
O=C(NCc1ccccc1)C1Cc2c(-c3cccc(F)c3)ccnc2O1 (configuration not stated) | · | 13 | -3 | · | · | · | -91 | 3
Nc1nc(NCCOCCO)nc(Nc2cccc(F)c2)c1[N+](=O)[O-] | -2 | -3 | -2 | i | -2 | -5 | -3 | -6

Carrying on:
SMILES | eIF4H FP inh | MT1-MMP act inh | MT1-MMP act inh RFP | Rce1 inh | CSC inhib | PABP FP inh | Env fusion inh | UUG fidelity | others
CN(C)S(=O)(=O)c1cc(NC(=O)CN2C(=O)NC3(CCCc4ccccc43)C2=O)ccc1Cl (configuration not stated) | -1 | 1 | -5 | i | 2 | 0 | · | ·
CCCn1c2c(c(O)c(C(=O)NCCCN(CC)CC)c1=O)CCCC2 | -3 | -9 | 0 | i | 40 | 3 | 20 | -4
Cc1cc(=O)oc2cc(OCC(=O)N3CCOCC3)c(Cl)cc12 | · | 1 | 1 | · | -14 | · | · | 3
Cc1cc(C)c(OCC(=O)N2CCN(c3ncc(C(F)(F)F)cc3Cl)CC2)c(C)c1 | -10 | 2 | 3 | i | 32 | -1 | 8 | -17
Nc1nc(SCC(=O)N2CCN(S(=O)(=O)c3ccc(Cl)cc3)CC2)n[nH]1 | -4 | -3 | 0 | i | -12 | -2 | -2 | -20
COC(CNc1ncnc2c1cnn2C)OC | -10 | 1 | 1 | i | -8 | -2 | -13 | ·
CC(C)NC(=O)N(C)C[C@H]1Oc2ccc(NC(=O)c3ccncc3)cc2C(=O)N([C@H](C)CO)C[C@@H]1C | · | -4 | 2 | · | 13 | · | -9[16.7 µM] | -8&3
c1ccc(C2C3=C(Nc4ncnn42)c2ccccc2CCC3)cc1 (configuration not stated) | 6 | -10 | -6 | i | 1 | -4 | -65 | -14
O=C(NC1CCCCC1)N1CCNCC1 | -8 | -1 | 0 | i | -27 | 9 | 4 | -21
CCC(=O)Nc1cccc(NC(=O)c2cc3ccccc3o2)c1 | 2 | 2 | -1 | i | 7 | -3 | · | -5
Cc1cc2oc(=O)cc(-c3ccccc3)c2c(C)c1-c1ccc(OC(F)(F)F)cc1 | · | -6 | -11 | · | · | · | 23 | 0
O=C(c1ccc(COc2ccccc2[N+](=O)[O-])o1)N1CCCCC1 | -4 | 5 | -5 | i | -7 | -1 | 6 | ·
O=c1c2ccccc2nc2n1C(CSc1ccc(Cl)cc1)CN2 (configuration not stated) | -6 | -3 | 2 | i | -5 | 14 | · | -17
COc1ccc(O)c(-c2cc(-c3cccs3)[nH]n2)c1 | -12 | -2 | -1 | i | 37 | -2 | · | -3
O=C1c2ccccc2C(=O)N1CCC1(O)C(c2ccccc2)=Nc2ccccc21 (configuration not stated) | · | 4 | 4 | · | · | · | -106 | -13
CCOC(=O)C1=NN(c2ccc(OC)cc2)C(c2ccccc2)CC1=O (configuration not stated) | -3 | 4 | 5 | i | -25 | -8 | -34 | -6
O=[N+]([O-])c1ccc(CSc2nnc(SCc3ccccc3)s2)cc1 | 3 | -1 | 2 | i | 16 | 1 | 11 | -23
COc1cc(CNc2ccc3[nH]c(=O)[nH]c3c2)ccc1OCc1ccc(C)cc1 | 1 | -3 | -2 | i | 7 | -6 | -110 | -14
C/C(=N\N1CCN(c2ccccc2)CC1)c1ccc(O)cc1 | -3 | 0 | -3 | i | · | -7 | 8 | 2
CCN(CC)c1ccc(/C=N/OCC(=O)N2CCCc3ccccc32)cc1 | -10 | -6 | -3 | i | 58 | -7 | · | -5
CC1CCC(NC(=O)c2cc3c(s2)CCCC3)CC1 (configuration not stated) | · | -2 | 0 | i | -3 | · | -17 | 12
CCCCCCNC(=O)C(C#N)c1nc2ccccc2nc1N1CCCC1 (configuration not stated) | 122 | -1 | 1 | i | 6 | 122 | · | -6 | eIF4H FP inh retest=-5;PABP FP inh retest=5
CC(CCc1ccccc1)NC(=O)COC(=O)c1cccc2ccccc12 (configuration not stated) | -3 | 1 | 6 | i | 0 | -8 | -4 | -5
COc1ccc2nc(-c3ccco3)c(-c3ccco3)nc2c1 | 98* | -7 | 9 | i | · | 87* | · | -19
CCc1cc(C(=O)OC)c(NC(=O)CCCC(=O)O)s1 | 1 | -2 | 0 | i | -7 | -3 | · | -2
O=C1Nc2ccccc2C12OCCO2 | 4 | -4 | -1 | i | 49 | -4 | · | -32

Source: PubChem (several laboratories)
